High-throughput results from PubChem.
Sa growth 42C: blocks Staphylococcus aureus growth. S. aureus RN4220 growth, OD600, 20 h, 42 °C; active compounds read low. relative growth, % (concentration not given with the values). 170,000 compounds, 0.53% hits. AID 720641;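 active = growth at 42 °C up to 50% and 20 or more points under that at 30 °C, or under 10% at both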;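 note: 300 nL library stock went into each well; scaled to the means of positive and negative controls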
GIV-Gai inh: blocks GIV peptide binding to rat Galpha-i3. P08753. Galpha-i3/FITC-GIV peptide fluorescence polarization, 90 min; active compounds read low; scaled: aluminum fluoride 0%, vehicle 100%. percent of control (FP), % (test concentration not listed). 210,000 compounds, 0.42% hits. AID 1224905;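 active = replicate mean at 85% of control or lower, very high polarization wells dropped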;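 note: lower values mean more displacement of the GIV peptide from Galpha-i3; wells of about 15 µL received 100 nL stock; the first replicate is given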
Target sequence (P08753 whole entry, looked up): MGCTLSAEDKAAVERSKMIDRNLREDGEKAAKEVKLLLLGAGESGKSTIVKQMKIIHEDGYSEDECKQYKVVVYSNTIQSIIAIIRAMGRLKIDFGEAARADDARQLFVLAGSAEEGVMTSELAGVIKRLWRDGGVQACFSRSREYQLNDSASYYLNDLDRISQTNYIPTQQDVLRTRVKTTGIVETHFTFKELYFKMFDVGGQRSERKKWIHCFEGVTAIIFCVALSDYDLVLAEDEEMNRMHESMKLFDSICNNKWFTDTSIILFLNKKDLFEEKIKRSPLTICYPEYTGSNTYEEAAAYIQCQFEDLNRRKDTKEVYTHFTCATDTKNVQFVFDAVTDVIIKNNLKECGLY
HCMV NEC inh: inhibitors of HCMV UL50-UL53 nuclear egress complex interaction | HTRF UL50-UL53 interaction, normalized percent inhibition | inhibition, % (test concentration not listed) | 190,000 compounds, 0.15% hits | AID 1918969;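 active = both replicates at 50% or more, plus weaker picks with an unusually low signal ratio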;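 note: stock transfer was 100 nL into about 20 µL; 0% = negative control wells and 100% = wells with untagged competitor protein; inactives centre near -12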
Sa growth 42C second temp: second read-out of Sa growth 42C, no call of its own (marks repeat the call); relative growth, %; measured here: growth at 30 °C;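 optical density after 20 h as mean of two plates; 100% = untreated growth and lower means inhibition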
The depositor's hits bear a star; x = not tested or not shown; & = joins results of further samples.

Start of the listing, in advance (5 entries):
SMILES | Sa growth 42C | Sa growth 42C second temp | GIV-Gai inh | HCMV NEC inh
CCN1CCN(Cc2c(O)ccc3c(=O)c(Oc4cccc(C)c4)c(C(F)(F)F)oc23)CC1 | x | x | 101 | -17
CCc1ccc2oc(C(=O)NCC(c3ccc(C(C)(C)C)cc3)N3CCCC3)cc(=O)c2c1 (stereo not given) | x | x | 106 | -61
CCOC(=O)C1=C(c2ccc(OC)cc2)NC(=O)NC1c1ccc(Br)cc1 (stereo not given) | x | x | 111 | -12
O=C(O)c1cc(=O)[nH]c2ccccc12 | 142 | 84 | x | -14&-29
CCOC(=O)c1cc2c(NCc3ccc(Cl)cc3Cl)nccc2nc1C(F)(F)F | 86 | 93 | 101 | -2

The whole of this part, from the first entry:
SMILES | Sa growth 42C | Sa growth 42C second temp | GIV-Gai inh | HCMV NEC inh
CCN1CCN(Cc2c(O)ccc3c(=O)c(Oc4cccc(C)c4)c(C(F)(F)F)oc23)CC1 | x | x | 101 | -17
CCc1ccc2oc(C(=O)NCC(c3ccc(C(C)(C)C)cc3)N3CCCC3)cc(=O)c2c1 (stereo not given) | x | x | 106 | -61
CCOC(=O)C1=C(c2ccc(OC)cc2)NC(=O)NC1c1ccc(Br)cc1 (stereo not given) | x | x | 111 | -12
O=C(O)c1cc(=O)[nH]c2ccccc12 | 142 | 84 | x | -14&-29
CCOC(=O)c1cc2c(NCc3ccc(Cl)cc3Cl)nccc2nc1C(F)(F)F | 86 | 93 | 101 | -2
COc1cccc(CNc2cc(C)nc3nc(-c4ccc(C)cc4)nn23)c1 | 110 | 85 | 104 | x
Cc1cc(C(=O)O)c2ccccc2n1 | 89 | 89 | x | -28
COCCNCC1C(Oc2ccc(Cl)cc2)C(=O)N1c1ccc(C)cc1 (stereo not given) | 100 | 77 | 111 | -9
COc1cccc(CNC(=O)CNS(=O)(=O)c2ccc3nc(C)sc3c2)c1 | 107 | 87 | 122 | -16
CCCCc1nn2c(=O)cc(CN3CCN(c4ncccn4)CC3)nc2s1 | x | x | 103 | -21
COC(=O)C(NS(=O)(=O)c1ccc(NC(C)=O)cc1)C(C)C (stereo not given) | 99 | 91 | 108 | -5
CCOC(=O)c1[nH]c(C)c(S(=O)(=O)N2c3ccccc3CC2C)c1C (stereo not given) | x | x | 110 | 18
S=C(Nc1ccc(Cl)cc1)N1CCN(C2CCCCC2)CC1 | 93 | 103 | 107 | 28
CNC(=S)N(Cc1nnc(-c2ccc(Cl)cc2)o1)C1CCCC1 | 26 | 21 | x | -25
Cn1c(=O)n(C)c2cc(N3CCOCC3)c(NC(=O)NCC3CCCO3)cc21 (stereo not given) | x | x | 96 | -4
COC(=O)c1cc2ccsc2n1Cc1ccccc1 | 120 | 88 | 102 | x
Cc1ccc(NC(=O)CN2CCN(S(=O)(=O)c3ccc(C(C)C)cc3)CC2)cc1F | 129 | 96 | 102 | x
CCc1ccccc1NC(=O)C(Cc1ccccc1)N1C(=O)c2ccccc2C1=O (stereo not given) | 88 | 79 | x | -12
COc1ccc2c(c1)C(O)c1ccccc1CO2 (stereo not given) | 121 | 84 | x | 0
Cc1ccccc1C1CC(=O)c2cnc3c(-c4ccc(Cl)cc4)c(C)nn3c2C1 (stereo not given) | x | x | 94 | -16
Cc1cccc(C(=O)N2N=C(c3ccc(Cl)cc3)CC2(O)C(F)(F)F)c1 (stereo not given) | x | x | 98 | -22
CC(C)(C)c1ccc(C(=O)Nc2cc(-c3ccccc3)no2)cc1 | 94 | 86 | 105 | 5
N#CCSc1nc(-c2cccnc2)ccc1C(=O)O | 102 | 100 | 99 | -46
Cc1cccc(-n2c(=O)c3ccccc3n(Cc3ccccc3)c2=O)c1 | 108 | 87 | 108 | -1
CCOC(=O)N1CCc2c(sc3c2c(=O)n(Cc2ccccc2)c(=O)n3Cc2cc(C)ccc2C)C1 | 94 | 90 | 107 | -37
O=C(CS(=O)CC(=O)Nc1cccc2c1CCCC2)Nc1ccc(F)cc1 (stereo not given) | 105 | 85 | 106 | -1
O=C(Nc1ccc2c(c1)OCO2)C1CCCN(c2ccnc(-c3ccc(F)cc3)n2)C1 (stereo not given) | x | x | 106 | -25
COc1cccc(NC(=O)C=C(C)C)c1 | 103 | 99 | 107 | -2
CN(C)S(=O)(=O)c1ccc(C(=O)N2CC(=O)Nc3ccc(Br)cc3C2c2ccc(F)cc2)cc1 (stereo not given) | 89 | 100 | 104 | 11
Cc1cc(C)c(NC(=O)CSc2nc(=O)n(Cc3cccnc3)c3c2CCC3)c(C)c1 | 112 | 101 | 107 | x

Four entries already listed, ordered by the value under GIV-Gai inh, low to high:
SMILES,GIV-Gai inh
Cc1ccc(NC(=O)CN2CCN(S(=O)(=O)c3ccc(C(C)C)cc3)CC2)cc1F,102
O=C(CS(=O)CC(=O)Nc1cccc2c1CCCC2)Nc1ccc(F)cc1 (stereo not given),106
Cc1cc(C)c(NC(=O)CSc2nc(=O)n(Cc3cccnc3)c3c2CCC3)c(C)c1,107
COc1cccc(CNC(=O)CNS(=O)(=O)c2ccc3nc(C)sc3c2)c1,122

(listing goes on)
SMILES | Sa growth 42C | Sa growth 42C second temp | GIV-Gai inh | HCMV NEC inh
CC1CCCC(C)N1CCNC(=O)c1ccc2c(c1)ncn2C1CCCCC1 (stereo not given) | 139 | 86 | 103 | x
O=C(NCc1csc2ccccc12)c1ccc(Cl)cc1 | 96 | 89 | 101 | -11
CSc1nnc2n(C)c(=O)c3sccc3n12 | x | x | 101 | 11
Cc1ccnc(S/C=C/C(=O)c2ccc(I)cc2)n1 | 100 | 94 | 110 | 4
CCOC(=O)N1CCN(C(=O)c2ccc3c(c2)N(Cc2ccccc2)CCS3)CC1 | 102 | 82 | 100 | x
CC(C)COc1ccc(C(CC(=O)O)C(=O)O)cc1 (stereo not given) | 120 | 83 | 102 | x
CCSc1nnc(NC(=O)CSc2ncnc3ccccc23)s1 | x | x | 94 | -12
CCCOc1ccc(CNC(=O)C(NS(=O)(=O)c2cccs2)C(C)C)cc1 (stereo not given) | 92 | 80 | 84* | x
O=C1NC2(CCCCC2)N(C(=O)c2ccccc2)C2=C1CCCC2 | 109 | 83 | 102 | x
Fc1ccc(-c2ccc(CNCCSc3nnnn3-c3ccccc3)o2)cc1 | 96 | 73 | 102 | -19
CC1=NN(c2nc3ccccc3s2)C(=O)C1CCC(C)C (stereo not given) | 1.9* | 1.1* | 109 | 16
Cc1cc(-c2nn3c(COc4ccccc4)nnc3s2)no1 | x | x | 104 | -14
CCc1ccc(CNC(=O)C2CCCN(S(=O)(=O)c3ccc4c(ccn4C)c3)C2)cc1 (stereo not given) | 101 | 85 | 102 | x
COc1cccc(NC(=O)CCC(=O)Nc2cccc(OC)c2)c1 | 88 | 95 | x | 7
CN(C(=O)Nc1cn(C)c2ccccc12)C1CCCCC1 | 70 | 83 | 104 | -44
FC(F)n1c2ccccc2c2ccccc21 | 76 | 55 | x | 6
O=C1NC(=S)C(=C2CCCC2)S1 | 55 | 59 | x | -14
O=S(=O)(c1cc(O)cc(S(=O)(=O)C(F)(F)F)c1)C(F)(F)F | -0.3* | -0.4* | 101 | -13
CCOC(=O)Cn1c(=O)oc2cc(S(=O)(=O)N3CCCCC3)ccc21 | 111 | 96 | 107 | 8
COc1cccc(N2C(=O)/C(=C/c3ccc(OC)c(OC)c3OC)C(=O)NC2=S)c1 | x | x | 108 | -18
O=C(NC1CCN(C(=O)C2CCCCC2)CC1)C1CCCCC1 | 102 | 88 | 103 | -3
CC(C)Sc1nc2ccccc2[nH]1 | 114 | 84 | x | -14
CCOc1ccc(NS(=O)(=O)c2cccc(C(=O)Nc3nnc(C4CC4)s3)c2)cc1 | 115 | 99 | x | 6
CC(=O)Nc1ccc(NC(=O)c2cc(-c3ccc4c(c3)OCCO4)on2)cc1 | 95 | 86 | 99 | 3
COc1ccc(CNC(=O)C(OC)c2ccccc2)cc1 (stereo not given) | 82 | 89 | x | -21
CCOC(=O)c1cc2c(=O)n3ccccc3nc2n(CC2CCCO2)c1=NC(=O)c1ccccc1F (stereo not given) | 114 | 82 | 104 | -26
COc1ccc(-c2cc3c(=O)n(CC(=O)Nc4cccc(OC)c4)ncn3n2)cc1 | x | x | 100 | -16
Cc1c(Cl)cccc1NC(=O)Cn1c(=O)nc(-c2ccccc2)c2ccccc21 | 87 | 88 | 101 | x
CCS(=O)(=O)Nc1ccc2[nH]c(=O)[nH]c2c1 | 102 | 88 | 103 | -5
O=C1c2ccccc2OC(c2ccccc2)C1O (stereo not given) | 92 | 80 | 94 | 28

Profiles, quoted from the list:
`O=C1c2ccccc2OC(c2ccccc2)C1O` (stereo not given) as listed: Sa growth 42C: 92; Sa growth 42C second temp: 80; GIV-Gai inh: 94; HCMV NEC inh: 28
`O=S(=O)(c1cc(O)cc(S(=O)(=O)C(F)(F)F)c1)C(F)(F)F` as listed: Sa growth 42C: -0.3*; Sa growth 42C second temp: -0.4*; GIV-Gai inh: 101; HCMV NEC inh: -13

(continued)
molecule | Sa growth 42C | Sa growth 42C second temp | GIV-Gai inh | HCMV NEC inh
CCOC(=O)c1cc(S(=O)(=O)N2CCCC2C(=O)N2CCCC2)cn1C (stereo not given) | x | x | 105 | -19
COC(=O)C1=C(\N2CCOCC2)CCCC/C=C\1C(=O)OC | 98 | 98 | 103 | 4
O=C(CSc1nc2ccccc2s1)NCCC1=CCCCC1 | 110 | 94 | x | -19
CCCN1C=C(OC(=O)c2ccccc2)c2ccccc2S1(=O)=O | x | x | 97 | -14
O=C(Cc1ccccc1F)OCC(=O)c1cc2ccccc2o1 | 104 | 79 | x | -66
CC(C)(C)C1CCc2nc(NC(=O)Cc3ccc(Cl)cc3)sc2C1 (stereo not given) | 101 | 77 | 102 | -7
Cn1c(=O)c2c(-c3ccccc3)n3c(c2n(C)c1=O)C(c1ccc(O)c(O)c1)Nc1ccccc1-3 (stereo not given) | x | x | 106 | -2
O=C(O)C1CCN(C(=O)c2ccc(Cl)cc2)CC1 | 93 | 88 | x | -23
Cc1nn(C)c2c1c(-c1ccccc1)cc(=O)n2CC(=O)NC(C)C | 84 | 93 | 101 | x
O=C(Nc1ccc(F)c([N+](=O)[O-])c1)c1cc(-c2ccccc2)nc2ccccc12 | x | x | 104 | -4
Cc1ccc(S(=O)(=O)N(CCc2cccs2)CC(=O)O)cc1 | 92 | 89 | 102 | -18
CCCn1c(SCc2nc(-c3cc(OC)ccc3OC)no2)nnc1-c1ccc(Cl)cc1 | 114 | 76 | 97 | -34
COc1ccc(NC(=O)Cc2cc(F)cc(F)c2)cc1 | 108 | 95 | 99 | -4
CC1C(C#N)=C(N)SC(N)=C1C#N | 44 | 24 | -20* | 30
C#CCn1c(=NC(=O)C(C)(C)C)sc2cccc(OCC)c21 | 100 | 78 | 102 | 6
Cc1cccc(CNS(=O)(=O)c2ccc3[nH]c(=O)ccc3c2)c1 | 119 | 98 | 111 | x
Cc1c(Cl)cccc1NC(=O)CCS(=O)(=O)c1ccc2c(c1)CC(=O)N2C | 94 | 90 | 105&102 | -20
O=C(c1ccc(CS(=O)c2ccccc2Cl)o1)N1CCN(c2cccc(Cl)c2)CC1 (stereo not given) | 97 | 89 | 104 | x
Cc1cc(C(=O)COC(=O)c2ccc(S(=O)(=O)NCc3ccco3)cc2)c(C)n1C | 85 | 86 | x | -19
CN(C)c1ccc(C(CNC(=O)C(C)(C)C)N(C)C)cc1 (stereo not given) | x | x | 102 | -24
Cc1c(NS(=O)(=O)c2ccc(F)cc2)c(-n2cnnc2)nn1C | x | x | 100 | -21
Cc1cc(C(=O)COC(=O)c2n[nH]c(=O)c3ccccc23)c(C)n1-c1ccc(S(N)(=O)=O)cc1 | 114 | 94 | x | -13
O=C(Cn1cc(S(=O)(=O)Cc2ccccc2)c2ccccc21)N1CCc2ccccc2C1 | x | x | 110 | -6
CC(=O)NC(c1ccc(Cl)cc1)C1CCCCC1=O (stereo not given) | 95 | 88 | x | -10
CCOC(=O)C1=C(Nc2ccc(OC(C)=O)cc2)C(=O)N(C(C)(C)C)C1 | 100 | 90 | 102 | -67
CCCN(CCC)S(=O)(=O)c1ccc(C(=O)Nc2ccc3c(c2)OCO3)cc1 | 101 | 99 | 103 | 6
Oc1ccc(N=Cc2ccco2)cc1 | 80 | 41 | 117 | -19
